Assay outcomes deposited in PubChem BioAssay by ICCB-Longwood Screening Facility, Harvard Medical School.
MbtI inh: blocks the Mycobacterium tuberculosis siderophore enzyme MbtI | purified MbtI enzyme, fluorescence intensity read-out | 100,000 tested, 0.89% active | inhibition, %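 (about 17 µg/mL by stock and volumes)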;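 active = above 50% in both replicates, above 80% if mildly self-fluorescent; inactive = the rest, strongly fluorescent compounds included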;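 also: 0% = mean of negative and 100% = mean of positive controls; one replicate is shown; some compounds called inactive have numbers as strong as hits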
Target sequence (P9WFX0 whole entry, looked up): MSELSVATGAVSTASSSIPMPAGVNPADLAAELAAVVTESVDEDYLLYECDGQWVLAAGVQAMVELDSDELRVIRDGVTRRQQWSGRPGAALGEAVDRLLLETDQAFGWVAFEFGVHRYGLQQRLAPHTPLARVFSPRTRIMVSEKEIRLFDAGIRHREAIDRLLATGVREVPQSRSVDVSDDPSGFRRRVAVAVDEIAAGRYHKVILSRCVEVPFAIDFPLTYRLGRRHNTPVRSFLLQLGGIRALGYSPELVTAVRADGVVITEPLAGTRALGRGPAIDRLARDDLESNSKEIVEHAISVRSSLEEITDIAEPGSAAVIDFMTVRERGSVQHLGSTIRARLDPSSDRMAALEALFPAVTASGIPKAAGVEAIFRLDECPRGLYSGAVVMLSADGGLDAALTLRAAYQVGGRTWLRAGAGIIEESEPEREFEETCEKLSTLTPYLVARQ
PV pol inh: poliovirus RNA polymerase inhibition | P03300 | poliovirus polymerase elongation, fluorescence polarization; active compounds read low | % elongation, % (compound at 16.7 µg/mL) | 150,000 tested, 0.66% active | AID 588519; in the data active = % elongation below about 90%; also: some results filed as inactive read as strong as hits
Target sequence (P03300 1749-2209 limits assumed): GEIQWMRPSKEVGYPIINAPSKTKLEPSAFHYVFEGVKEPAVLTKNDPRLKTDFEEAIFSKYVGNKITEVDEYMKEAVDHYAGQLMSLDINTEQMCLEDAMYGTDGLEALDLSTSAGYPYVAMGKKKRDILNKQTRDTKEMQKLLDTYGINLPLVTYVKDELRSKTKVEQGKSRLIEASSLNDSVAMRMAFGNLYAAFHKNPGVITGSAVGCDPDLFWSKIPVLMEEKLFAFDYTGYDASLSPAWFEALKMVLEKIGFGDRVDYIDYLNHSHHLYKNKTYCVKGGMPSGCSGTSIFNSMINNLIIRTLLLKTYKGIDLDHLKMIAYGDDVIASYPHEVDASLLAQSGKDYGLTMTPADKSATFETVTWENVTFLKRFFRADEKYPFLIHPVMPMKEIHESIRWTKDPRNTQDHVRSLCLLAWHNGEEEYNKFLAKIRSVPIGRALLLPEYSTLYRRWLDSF
MenB inh: blocks the Mycobacterium tuberculosis MenB enzyme | inhibition, %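 (about 12 µg/mL by stock and volumes)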 | MenB enzyme assay, absorbance read-out; some hits fall short of the stated cut | 100,000 tested, 0.43% active | P9WNP5;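 active = mean of two replicates above 30%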;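 also: 0% = no compound and 100% = wells with inactive enzyme; the first replicate is given; strong numbers were not always called active; inactives centre near -10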
PV pol inh intensity: further read-out of PV pol inh, marked with its call; % elongation; measured here: total intensity read-out; formula for this scale not given here;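 total fluorescence in place of polarization; lower means less elongation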
* = called active by the depositor; i = inactive; . = not tested or not shown; & = joins results of further samples.

item	Structure	MbtI inh	PV pol inh
1	CCCc1cc(N2CCN(C(=O)c3ccco3)CC2)n2c(nc3ccccc32)c1C#N	17	101
2	COc1cccc(CSc2nc3nccnc3c(=O)n2CCc2ccccc2)c1	-4	103
3	CSc1nnc2c(n1)OC(C(=O)c1ccccc1)Nc1ccccc1-2 (stereo not drawn)	18	99
4	O=C(Nc1cccnc1)Nc1cccc(C(F)(F)F)c1	-2	102
5	CCN1CCN(CC(=O)Nc2sc3c(c2C(=O)OC)CCC(C)C3)CC1 (stereo not drawn)	-133	101
6	Cc1noc(C(F)(F)F)c1-c1nc(-c2ccccc2)no1	-9	102
7	CN1CCN(CCCNc2c(N)c(=O)oc3ccccc23)CC1	-15	102
8	CCOc1ccccc1C(=O)NC(C(=O)O)C(C)C (stereo not drawn)	-7	103
9	O/N=C/c1ccc(Cl)cc1	11	100
10	O=S(=O)(Cc1ccccc1)c1ccc(Cl)c(Cl)c1	-1	102

item	PV pol inh intensity	MenB inh
1	102	3
2	108	-28
3	103	-42
4	107	-51
5	103	-4
6	105	-5
7	98	4
8	107	.
9	105	2
10	97	5

(listing goes on)
item	Structure	MbtI inh	PV pol inh
11	O=C1c2ccccc2C(=O)N1O	5	100
12	C=CCn1c(-c2ccc(OC)cc2)nc2ccccc21	84	103
13	Cc1ccc(Nc2nc3ccccc3n3c(N)nnc23)cc1C	14	100
14	CCCCCC(C)n1[nH]c(=O)c2c(C)cc(=O)[nH]c21 (stereo not drawn)	-2	101
15	CCOc1ccc(NC(=O)c2cnccn2)cc1	.	105
16	CSc1ccc(Cl)c(C(=O)N2CCN(CC(=O)N3CCCC3)CC2)c1	16	101
17	COc1nc2ccccc2nc1OC	69	103
18	CC1CCCC(C)N1C(=O)COC(=O)c1ccco1 (stereo not drawn)	2	102
19	O=C(O)CCCc1c[nH]c2ccccc12	-20	100
20	O=C(CSC1CCCC1)NCc1ccc2c(c1)OCO2	-7	105

item	PV pol inh intensity	MenB inh
11	101	-12
12	97	-56
13	113	3
14	104	9
15	112	-1
16	98	-7
17	108	-3
18	92	.
19	105	.
20	106	3

(cont.)
item	Structure	MbtI inh	PV pol inh
21	O=C(CSc1ccccc1)Nc1ccccc1F	-5	99
22	O=C(Oc1ccc2c(c1)OCO2)c1ccc(S(=O)(=O)C(F)F)cc1	4	106
23	CCN(CC)C(=O)C12CC3CC(CC(C3)C1)C2	2	102
24	COC(=O)[C@H]1[C@H]2C[C@H]3c4[nH]c5ccccc5c4CCN3C[C@H]2CC[C@@H]1O	-19	98
25	c1cnc2c(CN3CCCCC3)cccc2c1	-3	102
26	CCCN1C(=O)/C(=N\OCC(=O)c2cc(C)n(Cc3cccs3)c2C)c2ccccc21	0	109
27	CC(C#N)(Nc1ccccc1)c1ccc(F)cc1 (stereo not drawn)	-12	103
28	Cc1ccc(OCC(=O)NCC(=O)n2nc(C)cc2C)cc1	7	102
29	CC(=O)Nc1cccc(C(=O)N/N=C/c2ccc(C)o2)c1	19	103
30	Cc1nc(C(=O)/C=C/N(C)C)cs1	4	101

item	PV pol inh intensity	MenB inh
21	104	-13
22	103	11
23	102	-5
24	102	-1
25	104	.
26	109	-12
27	103	-20
28	104	-2
29	101	-20
30	104	10

Grouped by structure, the compounds so far containing four or more nitrogen atoms.
item	Structure	MbtI inh	PV pol inh
1	CCCc1cc(N2CCN(C(=O)c3ccco3)CC2)n2c(nc3ccccc32)c1C#N	17	101
2	COc1cccc(CSc2nc3nccnc3c(=O)n2CCc2ccccc2)c1	-4	103
3	CSc1nnc2c(n1)OC(C(=O)c1ccccc1)Nc1ccccc1-2 (stereo not drawn)	18	99
7	CN1CCN(CCCNc2c(N)c(=O)oc3ccccc23)CC1	-15	102
13	Cc1ccc(Nc2nc3ccccc3n3c(N)nnc23)cc1C	14	100

item	PV pol inh intensity	MenB inh
1	102	3
2	108	-28
3	103	-42
7	98	4
13	113	3

Following part.
item	Structure	MbtI inh	PV pol inh
31	Nc1cc(C(F)(F)F)cc2c1OCC(=O)N2	-3	99
32	N#CCC(=O)N/N=C/c1c(-c2ccccc2)n(-c2ccccc2)c2ccccc12	-61	108
33	CCc1nn(CC(=O)N(CC)Cc2ccccc2)c(=O)c2cc3sccc3n12	1	101
34	O=C(Nc1cccc(Cl)c1)c1cc(-c2ccccc2)on1	2	103&101
35	CC(C)(C)n1nnnc1C(c1cc2cc3c(cc2[nH]c1=O)OCO3)N(Cc1ccccc1)Cc1cccnc1 (stereo not drawn)	i	103
36	CCOC(=O)c1cnc2ccc(OCC)cc2c1N1CCN(c2ccccc2)CC1	-18	104
37	CCN(CC)C(=S)Nc1ccsc1C(=O)OC	7	102
38	O=C(COC(=O)C1CCC(N2C(=O)C3C4C=CC(C4)C3C2=O)CC1)c1ccc(F)cc1 (stereo not drawn)	-7	104
39	CCNC(=O)c1ccc(Cn2nc(-n3cccc3)c3c(C)cc(C)nc32)cc1	113	102
40	Cc1ccc(N2CC(=O)SC23CCCCC3)cc1	.	99

item	PV pol inh intensity	MenB inh
31	101	.
32	110	-24
33	102	6
34	98&102	-23
35	102	22
36	103	-18
37	104	-23
38	101	-64
39	102	-18
40	97	-3

Further results.
item	Structure	MbtI inh	PV pol inh
41	Brc1cc2c(cc1CSc1ncccn1)OCCO2	3	102
42	Cc1cc(/C=C2\SC(N)=NC2=O)c(C)n1C1CC1	3	100
43	O=S(=O)(NNc1ccccn1)c1cccc(Cl)c1Cl	63	106
44	Cc1ccc(N2CC3=C(C2=O)C(c2ccccc2)NC(=O)N3C)cc1C (stereo not drawn)	.	101
45	COc1cccc(NC(=O)C23CCC(C)(C(=O)C2)C3(C)C)c1 (stereo not drawn)	2	100
46	COc1ccccc1-n1nnc(C(=O)N2CCCC2)c1N	0	102
47	Clc1nc(Cl)nc(NNc2nc(Cl)nc(Cl)n2)n1	-10	100
48	O=C(Nc1ccc2c(c1)OCCO2)c1ccccc1F	-6	100
49	O=C(CSc1nc2ccccc2o1)NCCOC12CC3CC(CC(C3)C1)C2	.	102
50	O=C1CCCc2cc(S(=O)(=O)N3CCCC3C(=O)N3CCc4ccccc43)ccc2N1 (stereo not drawn)	-44	101

item	PV pol inh intensity	MenB inh
41	104	-14
42	109	-90
43	105	12
44	112	2
45	101	-24
46	101	31*
47	98	34*
48	102	-5
49	107	-13
50	102	-24

The list goes on.
item	Structure	MbtI inh	PV pol inh
51	c1ccc(-c2ncc(CSc3nnc(-c4cccs4)n3CC3CCCO3)s2)cc1 (stereo not drawn)	3	102
52	CCC(=O)n1ccc(C(=O)N2CCOCC2)n1	7	104
53	O=S(=O)(c1ccc(Br)cc1)N1CCCCCC1	.	106
54	CC(=O)Nc1cc([As](=O)(O)O)ccc1O	-20	100
55	Cc1nc2nc(SCC(=O)NC3CCCC(C)C3C)nn2c(C)c1Cc1ccccc1Cl (stereo not drawn)	-5	104
56	CC(C)NC(=O)/C=C/c1cn(-c2ccccc2)nc1-c1cccs1	106	106
57	COc1ccc(Nc2c3c(nc4ccc(NC(=O)C5CC5)cc24)CCCC3)cc1OC	-8	98
58	C/C(=N/NC(=O)Cc1cc(=O)[nH][nH]1)c1ccc(Cl)cc1	2	104
59	CCN(CC)C(=O)N1CCc2ccccc2C1CN1C(=O)c2ccccc2C1=O (stereo not drawn)	.	105
60	CCOC(=O)C1=C(C)NC(=O)NC1c1ccccc1 (stereo not drawn)	2	.

item	PV pol inh intensity	MenB inh
51	103	-3
52	109	-11
53	111	3
54	99	8
55	97	-32
56	106	-32
57	102	-37
58	104	-101
59	110	-4
60	.	7

Later entries.
item	Structure	MbtI inh	PV pol inh
61	O=C(Nc1cccnc1)c1cc2c(=O)[nH]c3ccccc3c2s1	1	102
62	CCC(=O)Nc1sc2c(c1C(=O)NC)CCC2	4	102
63	O=C(CSc1nnc(-c2ccc3c(c2)OCO3)o1)NC(=O)NC1CCS(=O)(=O)C1 (stereo not drawn)	13	99
64	COc1ccc(N=C/C(Br)=C/c2ccccc2)cc1OC	-1	99
65	Cc1ccc(-n2nc(C)c3c(C(F)(F)F)cc(-c4ccco4)nc32)cc1	55	100
66	N#Cc1cc(Br)ccc1N=C1CCCN1c1cccc(Cl)c1	0	102
67	O=C(Nc1ccccc1)Nc1csc2ccccc12	-5	108
68	CC(C)C(C)(C#N)NC(=O)CN1CCN(c2cccc(Cl)c2)CC1 (stereo not drawn)	-16	106
69	CCCCS(=O)(=O)NN1C(=O)NC(C)(c2ccccc2)C1=O (stereo not drawn)	2	.
70	O=C(c1ccc2c(c1)C(=O)N(Cc1ccco1)C2=O)N1CCOCC1	-14	102

item	PV pol inh intensity	MenB inh
61	104	-18
62	93	-12
63	105	-1
64	98	.
65	102	-7
66	106	1
67	105	11
68	111	-32
69	.	1
70	100	-18

Next section:
item	Structure	MbtI inh	PV pol inh
71	Cn1c(-c2cccnc2)nc2c1c(=O)[nH]c(=O)n2Cc1ccccc1	-10	104
72	Cc1[nH]c(=O)[nH]c(=O)c1S(=O)(=O)N(CC(C)C)CC(C)C	-3	102
73	CC1=NN(c2ccccc2)C(c2ccc(OCC(=O)NCCC3=CCCCC3)cc2)C1 (stereo not drawn)	-24	103
74	CC1CN(C(=O)CNC(=O)COc2ccccc2)CC(C)O1 (stereo not drawn)	-8	.
75	CC(NC(=O)CSc1cccc[n+]1[O-])C1CC2CCC1C2 (stereo not drawn)	21	99
76	COc1ccccc1Oc1cc(C)nc2ncnn12	-16	102
77	COC(=O)C1CCN(S(=O)(=O)c2c(C)c(C)cc(C)c2C)CC1	-13	105
78	Cc1nc2ccc(S(=O)(=O)NC(CC(C)C)C(=O)N3CCN(c4ccccc4)CC3)cc2s1 (stereo not drawn)	-10	99
79	O=C1c2ccccc2S(=O)(=O)N1Cc1ccc2nonc2c1	-4	109
80	Cn1c(SCc2cnc(-c3ccccc3)s2)nnc1C1COc2ccccc2O1 (stereo not drawn)	-11	102

item	PV pol inh intensity	MenB inh
71	108	8
72	101	-23
73	105	-27
74	.	-6
75	101	3
76	112	6
77	101	-24
78	100	-2
79	102	-8
80	99	-8

Later entries:
item	Structure	MbtI inh	PV pol inh
81	N#Cc1c(C(F)(F)F)cc(C2CC2)nc1SCCN1CCCCC1	.	107
82	O=C(COc1ccc(Cl)cc1)NCc1nnc(SCC(=O)Nc2cccc(F)c2)o1	-12	103
83	COc1ccc(CCN=Cc2ccc3c(c2)OCO3)cc1OC	-7	106
84	CC(C)N(Cc1ccccc1)C(=O)CSc1nnc(-c2ccccc2Br)o1	1	102
85	COC(=O)c1ccc2c(c1)NC(=O)C(N(CC(C)C)CC(C)C)S2 (stereo not drawn)	15	102
86	CCOC(=O)c1cccc(NC(=O)Cn2nnc(-c3ccc(C)cc3)n2)c1	-1	105
87	COC(=O)c1sccc1N(S(=O)(=O)c1ccccc1)S(=O)(=O)c1ccccc1	-4	99
88	Cc1c(C)c(C)c(CSC(=S)N(C)C)c(C)c1C	-13	107
89	CCOC(=O)Nc1cc(C(=O)OC)cc(C(=O)OC)c1	7	101
90	CCc1ccc(N(CC(=O)NC2CCCC2)S(=O)(=O)c2c(C)noc2C)cc1	-5	102

item	PV pol inh intensity	MenB inh
81	111	-5
82	109	-8
83	97	-11
84	104	-18
85	105	-15
86	104	-25
87	105	-17
88	111	-5
89	105	-1
90	103	-9

Remaining list, next part:
item	Structure	MbtI inh	PV pol inh
91	CCCN1CCC(NC(=O)Nc2cc(Cl)ccc2OC)CC1	-14	100
92	O=C1NC(c2cccs2)Nc2c1sc(=S)n2-c1ccccc1 (stereo not drawn)	.	105
93	Fc1ccc(C2=CSC3=NCCCN23)cc1F	-3	106
94	O=C(Nc1c2c(nc3ccccc13)CCCC2)c1ccccc1Cl	1	102
95	CCN=c1scc(-c2ccc3c(c2)NC(=O)CO3)n1/N=C/c1cccs1	6	98
96	COc1ccc(OCC(O)Cn2c(C(C)C)nc3ccccc32)cc1 (stereo not drawn)	-1	100
97	O=C(c1nc(-c2cccnc2)no1)N1CCOCC1	-14	105
98	O=c1cc(CO)oc(C(Nc2cccc(C(F)(F)F)c2)c2ccccn2)c1O (stereo not drawn)	11	101
99	CC1CC(=O)Nc2ccccc2N1C=O (stereo not drawn)	.	102
100	O=C(/C=C\Nc1ccccn1)c1ccc(Cl)cc1	-12	106
101	CC(C)(C)C(=O)COC(=O)c1cc(=O)c2ccccc2o1	1	107
102	N#CCCn1cc(C(=O)N(c2ccccc2)c2ccccc2)c(-c2ccccc2)n1	2	98
103	Cc1oc2c(CN(C)C)c(O)ccc2c(=O)c1Oc1ccc2ccccc2c1	i	100

item	PV pol inh intensity	MenB inh
91	102	-30
92	114	-13
93	105	-18
94	105	10
95	92	-53
96	105	-28
97	107	-5
98	103	-22
99	109	-12
100	101	-102
101	106	-7
102	100	7
103	104	-8

From entry 99 as far as 101, copied from above:
item	Structure	MbtI inh	PV pol inh
99	CC1CC(=O)Nc2ccccc2N1C=O (stereo not drawn)	.	102
100	O=C(/C=C\Nc1ccccn1)c1ccc(Cl)cc1	-12	106
101	CC(C)(C)C(=O)COC(=O)c1cc(=O)c2ccccc2o1	1	107

item	PV pol inh intensity	MenB inh
99	109	-12
100	101	-102
101	106	-7

Rows are unselected. Share with any hit: about 1.8%.
